Source: PubChem (Broad Institute)
NOMO-1 viab: STK33 inhibitor candidate reducing NOMO-1 cell viability. 7.5% of 37,000 active. NOMO-1 AML viability, CellTiter-Glo luminescence, 72 h. inhibition, % (no concentration beside the values);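 active means most replicates above 80%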;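 further: wells of about 30 µL received 25 nL stock; 0% = median of vehicle wells and 100% = reference inhibitor level; the first replicate is given; inactives centre near 10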
An asterisk follows results filed as active. A portion of the library. The share of hits here may be higher or lower than overall.

SMILES	NOMO-1 viab
c1ccc(Cn2c3ccccc3n3c(SCc4nc5ccccc5[nH]4)nnc23)cc1	7
Cc1ccc(S(=O)(=O)Nc2ccc3c(c2)CC(=O)N([C@H](C)CO)C[C@@H](C)[C@H](CN(C)S(=O)(=O)c2ccccc2)O3)cc1	25
COc1cc(OC)c(C2=NOC(C(=O)NCc3ccco3)C2)cc1Cl (stereo unspecified)	129*
COc1ccc(CN(C)C[C@H]2Oc3ccc(NC(=O)C4CCCCC4)cc3C(=O)N([C@@H](C)CO)C[C@@H]2C)cc1	17
C[C@@H]1CN([C@H](C)CO)C(=O)c2cccc(NC(=O)C3CC3)c2O[C@H]1CN(C)C(=O)Nc1cccc2ccccc12	-11
O=C(Nc1ccccc1C(=O)O)OCC1c2ccccc2-c2ccccc21	18
Cc1ccccc1NC(=O)CSc1nc(N)c2c3c(sc2n1)COC(C)(C)C3	20
COc1cc(OC)c(NC(=O)CS(=O)(=O)c2ccccc2)cc1Cl	10
Cc1ccc(S(=O)(=O)Nc2ccc3c(c2)C(=O)N([C@H](C)CO)C[C@H](C)[C@H](CN(C)C(=O)NC(C)C)OCCCC[C@@H](C)O3)cc1	-3
O=C(O)CCc1nn2c3ccccc3n(Cc3ccccc3)c2nc1=O	-4
CCOc1ccccc1NC(=O)c1ccccc1N(C)S(=O)(=O)c1ccc(C)cc1	46
CC(=O)Nc1ccc(Br)c(C(F)(F)F)c1	14
Cc1nnc(SCC(=O)Nc2cccc(C)c2C)s1	2
COc1ccc(S(=O)(=O)Nc2ccc3c(c2)CC(=O)N([C@@H](C)CO)C[C@H](C)[C@@H](CN(C)C(=O)Nc2c(C)noc2C)O3)cc1	18
O=C(CSc1nc2ccccc2[nH]1)Nc1cccc2ccccc12	13
CCC(CO)NS(=O)(=O)c1ccc(OC)c(-c2nnc3c4ccccc4c(C)nn23)c1 (stereo unspecified)	-8
Cc1cc(Oc2ccccc2)nc(SCC(=O)Nc2ccc(Cl)cc2Cl)n1	6
C[C@@H]1CN([C@H](C)CO)C(=O)c2cccc(NC(=O)Nc3cccc4ccccc34)c2O[C@H]1CN(C)S(=O)(=O)c1cccs1	30
COc1ccc(NC(=O)C2CC=CCC2C(=O)Nc2ccccc2Cl)cc1 (stereo unspecified)	6
COc1cc(C(=O)Nc2ccc(S(=O)(=O)Nc3ccccn3)cc2)cc(OC)c1OC	-13
CNC(=O)CN(c1cc([N+](=O)[O-])ccc1C)S(C)(=O)=O	12
C[C@@H]1CN([C@H](C)CO)C(=O)c2cccc(NC(=O)C3CC3)c2O[C@H]1CN(C)S(=O)(=O)c1ccccc1	33
CCn1c(SCC(=O)N2c3ccccc3Sc3ccccc32)nnc1-c1cccc(Cl)c1	24
O=c1cc(-c2ccc(O)cc2)oc2cc(O)c(C3OC(CO)C(O)C(O)C3O)c(O)c12 (stereo unspecified)	64
C[C@H](CO)N1C[C@H](C)[C@@H](CN(C)S(=O)(=O)c2ccc(F)cc2)Oc2c(NC(=O)c3ccncc3)cccc2C1=O	11
CCOC(=O)CCc1nc2ccc(O)cc2[nH]1	-6
Cc1cc(C(=O)Nc2ccccc2C(=O)O)ccc1NC(=O)COc1ccccc1Cl	9
O=C(CSc1ncnc2sc(-c3ccccc3)cc12)NC1CCCCC1	104*
Cc1cc(C)c(S(=O)(=O)N(C)CC(=O)Nc2ccccc2F)c(C)c1	13
C[C@@H]1CN([C@H](C)CO)C(=O)c2cc(N(C)C)ccc2O[C@H]1CN(C)C(=O)Nc1ccc2c(c1)OCO2	25
CSCCC(N)C(=O)NC(CC(C)C)C(=O)NC(Cc1ccccc1)C(=O)O (stereo unspecified)	9
CC(C)NC(=O)Nc1ccc2c(c1)C(=O)N([C@H](C)CO)C[C@@H](C)[C@@H](CN(C)CC1CCCCC1)O2	-4
O=c1[nH]ncc(NCC2CCCO2)c1Cl (stereo unspecified)	18
COc1ccc(-c2nnc(SCCC(=O)O)n2-c2ccccc2)cc1	-24
COc1ccc(S(=O)(=O)Nc2ccc3c(c2)C(=O)N([C@H](C)CO)C[C@H](C)[C@H](CN(C)C(=O)Nc2c(C)noc2C)O3)cc1	36
COCc1[nH]c(=S)[nH]c(=O)c1Cc1c(F)cccc1Cl	10
Cc1c(C(=O)OC(C)C)sc2ncn(CC(=O)Nc3ccccc3C(F)(F)F)c(=O)c12	21
CCn1c(SCc2nc3ccccc3c(=O)[nH]2)nnc1-c1cc2cccc(OC)c2o1	17
C[C@@H]1CN([C@@H](C)CO)C(=O)c2cc(NS(=O)(=O)c3ccc(Cl)cc3)ccc2O[C@@H]1CN(C)CC1CC1	1
C[C@H]1CN([C@@H](C)CO)C(=O)Cc2cc(NS(=O)(=O)c3ccccc3)ccc2O[C@H]1CN(C)C(=O)NC1CCCCC1	-25

In a second layout: entries from further up
COCc1[nH]c(=S)[nH]c(=O)c1Cc1c(F)cccc1Cl
- NOMO-1 viab = 10

Cc1c(C(=O)OC(C)C)sc2ncn(CC(=O)Nc3ccccc3C(F)(F)F)c(=O)c12
- NOMO-1 viab = 21

CCn1c(SCc2nc3ccccc3c(=O)[nH]2)nnc1-c1cc2cccc(OC)c2o1
- NOMO-1 viab = 17

C[C@@H]1CN([C@@H](C)CO)C(=O)c2cc(NS(=O)(=O)c3ccc(Cl)cc3)ccc2O[C@@H]1CN(C)CC1CC1
- NOMO-1 viab = 1

Further records follow.
SMILES	NOMO-1 viab
C[C@H]1CN([C@@H](C)CO)C(=O)Cc2cc(NC(=O)Nc3ccc(F)cc3)ccc2O[C@@H]1CN(C)Cc1ccc(C(=O)Nc2ccccc2N)cc1	62
COc1ccc(S(=O)(=O)Nc2cccc3c2O[C@H](CN(C)C(=O)NC2CCCCC2)[C@H](C)CN([C@@H](C)CO)C3=O)cc1	2
CSc1n[nH]c(-c2cccc(Cl)c2)c1C#N	7
COc1ccc(S(=O)(=O)N(C)C[C@@H]2Oc3ccc(NS(C)(=O)=O)cc3C(=O)N([C@H](C)CO)C[C@@H]2C)cc1	-2
Cc1noc(C)c1S(=O)(=O)Nc1cccc2c1O[C@@H](CN(C)Cc1ccc(C(=O)Nc3ccccc3N)cc1)[C@@H](C)CN([C@H](C)CO)C2=O	83*
Cc1ccc2nc(-c3cccc(Br)c3)cc(C(=O)NCc3cccnc3)c2c1	66
O=C(CN1C(=O)C2C3C=CC(C4CC34)C2C1=O)NCc1ccco1 (stereo unspecified)	4
COC(=O)c1ccccc1NC(=O)CN(C)S(=O)(=O)c1cc(Cl)ccc1Cl	12
CC1=Nc2ccc(C(F)(F)F)cc2C1(C)C	-14
COC(=O)c1cccc(NC(=O)C(C(C)C)N2C(=O)c3ccccc3C2=O)c1 (stereo unspecified)	-15

Grouped by structure: the entries above with a CF3 group
SMILES	NOMO-1 viab
CC(=O)Nc1ccc(Br)c(C(F)(F)F)c1	14
Cc1c(C(=O)OC(C)C)sc2ncn(CC(=O)Nc3ccccc3C(F)(F)F)c(=O)c12	21
CC1=Nc2ccc(C(F)(F)F)cc2C1(C)C	-14

Shown as labelled records: 2 of the compounds above
O=C(CN1C(=O)C2C3C=CC(C4CC34)C2C1=O)NCc1ccco1 (stereo unspecified)
  NOMO-1 viab = 4

CSc1n[nH]c(-c2cccc(Cl)c2)c1C#N
  NOMO-1 viab = 7

(next part)
SMILES	NOMO-1 viab
CCn1c(SCC(=O)c2cc(OC)ccc2OC)nnc1-c1ccncc1	9
CNC(=O)c1cccc2c1-c1ccccc1C2=O	17
NNC(=O)c1cccc(Cn2cccn2)c1	-17
Cc1ccc(S(=O)(=O)N(C)C[C@H]2Oc3ccc(NS(=O)(=O)c4ccccc4)cc3CC(=O)N([C@@H](C)CO)C[C@H]2C)cc1	0
CNC[C@@H]1Oc2c(NC(=O)c3ccc(-c4nccs4)cc3)cccc2C(=O)N([C@@H](C)CO)C[C@@H]1C	10
CSc1ccccc1NC(=O)C(C)N(c1ccccc1)S(C)(=O)=O (stereo unspecified)	7
Cc1nc2ccccn2c1-c1csc(Nc2cccc(C(=O)O)c2)n1	3
CC(=O)c1cccc(NC(=O)CSC2=C(C#N)C(c3ccccc3C)C3=C(CCCC3=O)N2)c1 (stereo unspecified)	32
COc1ccc(-c2nnc(SCC(=O)Nc3c(C)n[nH]c3C)n2-c2ccccc2)cc1OC	-16
C[C@H](CO)N1C[C@H](C)[C@H](CN(C)C(=O)Nc2cccc3ccccc23)Oc2ccc(NC(=O)C3CC3)cc2CC1=O	-9
O=C(CCc1nc(-c2ccc(Cl)cc2)no1)NCC1CCCO1 (stereo unspecified)	9
COc1cc(OC)c(NC(=O)CSc2nnc(-c3ccccc3)n2-c2ccccc2)cc1Cl	9
Cc1ccc2nc(-c3ccc(NC(=O)CSc4nncn4C)cc3)sc2c1	7
CC1=C[C@H](O)[C@H]2C(C)(C)CCC[C@]2(C)[C@@]1(O)CO	26
C[C@H]1CN([C@@H](C)CO)C(=O)c2cc(NC(=O)C3CCCCC3)ccc2O[C@H]1CN(C)S(=O)(=O)c1ccc(F)cc1	9
COC1C(OC)N(S(=O)(=O)c2ccc(C)cc2)CCN1S(=O)(=O)c1ccc(C)cc1 (stereo unspecified)	7
Cc1noc(C)c1NC(=O)N(C)C[C@@H]1Oc2ccc(NS(=O)(=O)c3cn(C)cn3)cc2C(=O)N([C@@H](C)CO)C[C@H]1C	11
Clc1ccc(-n2c(SCc3nc4ccccc4[nH]3)nnc2-c2ccncc2)cc1	16
C[C@@H]1CN([C@@H](C)CO)C(=O)c2cc(NC(=O)Nc3cccc4ccccc34)ccc2O[C@H]1CN(C)C(=O)NC1CCCCC1	-15
C[C@@H]1CN([C@H](C)CO)C(=O)c2cc(NC(=O)Nc3ccc4c(c3)OCO4)ccc2O[C@H]1CN(C)C(=O)Nc1cccc2ccccc12	-2
Cc1ccc(-c2nc3ccccc3[nH]2)cc1NC(=O)COc1ccccc1[N+](=O)[O-]	119*
C[C@@H]1CN([C@H](C)CO)C(=O)c2cc(NC(=O)C3CCCCC3)ccc2O[C@H]1CN(C)S(C)(=O)=O	-10
C[C@@H]1CN([C@@H](C)CO)C(=O)c2cccc(NC(=O)C3CCOCC3)c2O[C@@H]1CN(C)S(=O)(=O)c1ccc(F)cc1	20
Cc1cc(C)c2nc(-c3cccnc3)cc(C(=O)Nc3c(C)nn(Cc4ccccc4C)c3C)c2c1	27
COC(=O)c1ccc(CSc2n[nH]c(-c3ccccc3OC)n2)o1	114*
C[C@@H]1CN([C@@H](C)CO)C(=O)c2cccc(NC(=O)Nc3ccccc3)c2O[C@@H]1CN(C)C(=O)Nc1ccccc1	50
Cc1cc(Cl)cc(Cl)c1OCC(=O)Nc1ccccc1[N+](=O)[O-]	30
C[C@H]1CN([C@@H](C)CO)C(=O)c2cc(NS(=O)(=O)c3ccc(F)cc3)ccc2O[C@H]1CN(C)Cc1ccccc1	41
COc1ccccc1NC(=O)COc1ccc(C(=O)Nc2cccc(C(F)(F)F)c2)cc1	26
COc1ccc(CN(C)C[C@H]2Oc3ccc(NC(=O)CCC(F)(F)F)cc3CC(=O)N([C@@H](C)CO)C[C@H]2C)cc1	9
O=C(c1cc2cc(Br)ccc2oc1=O)N1CCOCC1	19
Cc1noc(C)c1S(=O)(=O)Nc1ccc2c(c1)C(=O)N([C@H](C)CO)C[C@H](C)[C@H](CN(C)CC1CCCCC1)OCCCC[C@@H](C)O2	17
COc1ccc(Cl)cc1NC(=O)CN(C)S(=O)(=O)c1cc(C)ccc1OC	-1
C[C@H](CO)N1C[C@H](C)[C@H](CN(C)Cc2ccc3c(c2)OCO3)Oc2c(NC(=O)c3ccncc3)cccc2C1=O	-13
Cc1cc(NC(=O)CSc2nc3ccccc3[nH]2)ccc1Br	24
Cc1noc(C)c1S(=O)(=O)Nc1ccc2c(c1)C(=O)N([C@H](C)CO)C[C@H](C)[C@H](CN(C)C(=O)NC1CCCCC1)O2	15
C[C@H]1CN([C@@H](C)CO)C(=O)Cc2cc(NS(=O)(=O)c3ccccc3)ccc2O[C@@H]1CN(C)Cc1ccc2c(c1)OCO2	25
C[C@@H]1CN([C@@H](C)CO)C(=O)c2cc(NC(=O)Nc3ccc(C(F)(F)F)cc3)ccc2O[C@H]1CN(C)C(=O)NC1CCCCC1	12
C[C@@H]1CN([C@@H](C)CO)C(=O)c2cc(NC(=O)C3CCCCC3)ccc2O[C@@H]1CN(C)Cc1ccc(Oc2ccccc2)cc1	115*
O=C1CNC(=S)N1Cc1ccccc1Cl	35
C[C@H](CO)N1C[C@H](C)[C@@H](CN(C)Cc2ccc(-c3ccccc3)cc2)Oc2c(NC(=O)Nc3ccc(F)cc3)cccc2C1=O	36
N#CCS(=O)c1ccccc1 (stereo unspecified)	4
Cc1noc(C)c1S(=O)(=O)Nc1ccc2c(c1)CC(=O)N([C@H](C)CO)C[C@@H](C)[C@H](CN(C)C(=O)Nc1ccc(C(F)(F)F)cc1)O2	30
O=c1[nH]c(SCc2ccccc2[N+](=O)[O-])nc2ccccc12	13
C[C@H]1CN([C@@H](C)CO)C(=O)c2cccc(NC(=O)Nc3ccc4c(c3)OCO4)c2O[C@@H]1CN(C)C(=O)Nc1ccc(F)cc1	-24
O=c1c(O[C@@H]2OC[C@H](O)[C@H](O)[C@H]2O)c(-c2ccc(O)cc2)oc2cc(O)cc(O)c12	18
CC(=O)c1cccc(NC(=O)CN2C(=O)COc3ccc(Cl)cc32)c1	9
Cc1ccc(S(=O)(=O)Nc2ccc3c(c2)C(=O)N([C@H](C)CO)C[C@H](C)[C@H](CN(C)S(=O)(=O)c2ccc(F)cc2)OCCCC[C@@H](C)O3)cc1	35
C[C@@H]1CN([C@H](C)CO)C(=O)c2cc(NC(=O)Nc3cccc4ccccc34)ccc2O[C@@H]1CN(C)C(=O)NC1CCCCC1	17
